# Screening data (PubChem)
# RecA splice inh – Mtb RecA intein splicing inhibitors, primary screen, biochemical, fluorescence, HTS. Protein RecA (Mycobacterium tuberculosis (strain ATCC 25618 / H37Rv)), P9WHJ3. inhibition, %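 (about 9 µM by stock and volumes)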. AID 2221, 2009. hit rate 0.75% among 290,000. cell-free RecA intein splicing; in the data active means inhibition above about 30%; inconclusive means no clear call, values can overlap the other calls;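 further: 0% = vehicle wells and 100% = reference inhibitor control wells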
# Target sequence (P9WHJ3 whole entry, looked up, canonical isoform): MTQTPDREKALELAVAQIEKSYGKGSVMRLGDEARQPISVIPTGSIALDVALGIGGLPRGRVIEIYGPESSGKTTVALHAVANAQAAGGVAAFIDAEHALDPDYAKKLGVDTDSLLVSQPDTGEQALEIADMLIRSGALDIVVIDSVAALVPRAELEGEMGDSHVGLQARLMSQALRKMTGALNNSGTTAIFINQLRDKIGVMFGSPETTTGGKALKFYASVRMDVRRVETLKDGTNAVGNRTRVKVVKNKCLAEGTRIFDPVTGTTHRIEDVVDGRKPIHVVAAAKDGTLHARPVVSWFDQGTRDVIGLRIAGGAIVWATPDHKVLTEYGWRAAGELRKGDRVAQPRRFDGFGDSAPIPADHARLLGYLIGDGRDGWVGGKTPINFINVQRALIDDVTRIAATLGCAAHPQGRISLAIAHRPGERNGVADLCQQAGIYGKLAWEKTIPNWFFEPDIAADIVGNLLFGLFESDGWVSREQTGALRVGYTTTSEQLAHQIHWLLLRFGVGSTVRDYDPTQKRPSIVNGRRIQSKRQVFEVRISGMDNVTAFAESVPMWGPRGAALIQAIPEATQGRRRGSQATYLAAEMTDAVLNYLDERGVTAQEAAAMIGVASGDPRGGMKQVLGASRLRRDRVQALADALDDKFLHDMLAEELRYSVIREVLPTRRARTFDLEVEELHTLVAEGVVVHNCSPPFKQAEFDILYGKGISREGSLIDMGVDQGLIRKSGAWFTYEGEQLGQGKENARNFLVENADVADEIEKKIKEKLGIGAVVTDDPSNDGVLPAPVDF
# Mtb growth – M. tuberculosis H37Rv growth inhibitors, H37Rv strain (AID 1626). M. tuberculosis H37Rv growth inhibition; higher % means a stronger effect. inhibition, % at 10 µM; hits with a dose series show IC50 in µM. hit rate 0.95% among 220,000;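 active means confirmed in a dose series; inconclusive means inhibition above 80% but not taken into the dose series; inactive means below 80% or under 30% at every dose of the series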;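 further: bacteria incubated seven days before Alamar blue readout; 0% = bacteria only wells and 100% = bacteria with antibiotic wells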
# Mtb betalactam – beta-lactam sensitization of Mtb H37Rv, H37Rv; inhibition, % at 25 µM; hit rate 0.27% among 330,000; AID 434955, 2010; M. tuberculosis H37Rv growth with meropenem, percent inhibition; hits of this screen are not shown here;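 active means about 74% or more and at least 40 points above the plate without the antibiotic, then above 30% in a dose series; inconclusive means first-round hits that could not be retested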;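 further: growth measured after seven days incubation then overnight dye step; 0% = bacteria only wells and 100% = bacteria with antibiotic; twin plates without the antibiotic show which effects depend on it; some results filed as inactive read as strong as hits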
# Arbovirus anti – antivirals against arbovirus infection, primary screen, cell-based, full library, 10K replicate subset; inhibition, % at 10 µM; AID 1251, 2008; hit rate 0.37% among 200,000; arbovirus infection cell-based antiviral screen;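 active means inhibition from about 30%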;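 further: bluetongue infection of BSR cells; cell survival read as ATP light after 72 h; 0% = infected wells without compound and 100% = uninfected wells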
# YopH PTP inh – YopH tyrosine phosphatase inhibitors, primary screen, biochemical, fluorescence Ex485/Em525; YopH tyrosine phosphatase [Yersinia enterocolitica]; hit rate 0.16% among 140,000; inhibition, %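 (about 10 µM by stock and volumes)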;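 active means inhibition of 50% or more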;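 further: controls were vehicle for no effect and minimum signal wells for full effect; inactives centre near -20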
# Arbovirus anti repeat – second read-out of Arbovirus anti, no call of its own (marks repeat the call); inhibition, %; measured here: 10K subset replicate screen; many hits read low in the repeat;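 first of two repeat runs on a subset; 0% = infected and 100% = uninfected wells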
# * = called active by the depositor; ? = inconclusive; · = not tested or not shown.
SMILES,RecA splice inh,Mtb growth,Mtb betalactam,Arbovirus anti,YopH PTP inh,others
Cc1cnc(C(=O)Nc2nnc(C3CC3)s2)cn1,-0.5,2%,9,-12,0,
Cn1nc(-c2ccccc2)c(-c2nc(-c3cccc(C(F)(F)F)c3)no2)c1Cl,-2.5,-3%,6,-3,-16,
O=C(N/N=C/c1ccco1)c1ccncc1,-3.4,?,98,-2,-31,
COc1ccc(OCC(O)CNC(=O)Nc2ccc(C(C)(C)C)cc2)cc1 (stereo not given),0.9,-9%,-3,·,·,
CCc1ccc(NC(=O)C(C)n2nc(C)c([N+](=O)[O-])c2C)cc1 (stereo not given),-1.2,65%,71,4,·,
COc1ccc(-c2nnc3c4ccccc4c(C)nn23)cc1,4.3,0%,5,-4,-9,
Cc1ccc(-c2nnn(CC(=O)Nc3nnc(C(C)C)s3)n2)cc1,0.4,5%,0,3,·,
COc1cccc(NC(=S)NCc2ccccc2)c1,1.7,·,4,·,·,
CCOC(=O)C1(CCOc2ccccc2)CCN(Cc2cccc(F)c2)CC1,-1.0,·,8,·,·,
N#Cc1c(Nc2cccc(F)c2)sc2c(O)cc(=O)[nH]c12,-8.3,5%,-1,4,·,
O=C(C1CCCO1)N1CCN(C(c2ccccc2)c2ccccc2)CC1 (stereo not given),6.1,-7%,2,0,-5,
CN(C(=O)CSc1nnc(C(F)(F)F)n1N)C1CCS(=O)(=O)C1 (stereo not given),1.6,3%,-8,·,·,
O=C(CCl)Nc1ccccc1Sc1ccccc1,·,74%,99,13,5,
CCC(CC)NC(=O)COC(=O)CCC(=O)c1ccc(Cl)cc1,-1.0,3%,2,23,·,
O=C(CNC(=O)/C(=C\c1ccc(F)cc1)NC(=O)c1ccccc1)OCc1ccccc1,5.6,?,100,1,-7,
CCOC(=O)N1CCN(C(=O)CN(c2ccc(Oc3ccccc3)cc2)S(C)(=O)=O)CC1,0.8,-8%,-7,-4,-47,Arbovirus anti repeat=-7
O=C(CSc1nc2c(cnn2-c2ccccc2)c(=O)[nH]1)N1CCCCC1,-2.5,0%,-3,·,·,
COCCNS(=O)(=O)c1cc(OC)c(Cl)cc1Cl,-1.4,2%,·,5,-2,
COc1ccccc1NC(=O)CCCNC(=O)Cn1cnc2sc(C)c(C)c2c1=O,-0.7,·,0,·,·,
O=C(COc1ccccc1F)NC12CC3CC(CC(C3)C1)C2,2.2,9%,26,·,·,
Nc1cc(N)nc(SCC(=O)NNC(=O)Cc2ccccc2)n1,-0.5,2%,-2,1,·,
COc1ccc(-c2cc3nc(C)cc(N)n3n2)cc1,·,-3%,3,-16,3,
COc1ccccc1NC(=O)CCn1cccc1,-0.1,-9%,?,3,-11,
Cc1cc(C(=O)CSc2nc(N)cc(=O)[nH]2)c(C)n1Cc1ccco1,1.0,2%,5,·,·,
Cc1[nH]c2ccccc2c1C(=O)CN1CCSCC1,-0.4,2%,2,2,-38,

# (list continues)
SMILES,RecA splice inh,Mtb growth,Mtb betalactam,Arbovirus anti,YopH PTP inh,others
CC(C)(C)C(=O)N1CCN(c2ncccc2C(F)(F)F)CC1,·,-14%,-2,·,·,
OC(CNCc1ccccc1)(c1ccccc1)c1ccccc1,0.2,·,-1,·,·,
O=C1CSC(c2ccc([N+](=O)[O-])cc2)N1Cc1ccccc1 (stereo not given),3.9,·,-3,·,·,
COc1ccccc1NS(=O)(=O)c1cccc(C(=O)OCc2nc3ccccc3s2)c1,2.5,1%,2,-1,-19,
CC(C)CCn1c(=O)[nH]c2ccccc21,1.3,·,0,·,·,
O=C(COc1ccc2ccccc2c1)Nc1ccc2c3c(cccc13)CC2,-0.9,7%,17,-19,-31,
O=C(NC12CC3CC(CC(C3)C1)C2)c1ccc(S(=O)(=O)N2CCOCC2)cc1,1.5,1%,0,-2,-27,
CCOC(=O)COn1c(=O)c(=O)n(O)c2ccccc21,1.2,-7%,-3,-5,-16,Arbovirus anti repeat=-10
COc1ccc(CCN(/C=C2\Sc3ccccc3C2=O)C(C)=O)cc1OC,-0.2,-7%,1,·,·,
C=CCSc1nc(C)c(CCC(C)C)c(=O)[nH]1,2.7,3%,4,0,·,
CCOc1ccc(/C=N/N2C(C)CCCC2C)cc1OC (stereo not given),-0.3,·,0,·,·,
O=C1c2ccccc2-c2onc3ccc(Oc4ccccc4)c1c23,86*,?,100,-37,-26,
CCn1cc(C(=O)O)c(=O)c2cnc(N3CCN(C(=S)NC(=O)c4ccccc4)CC3)nc21,-0.7,-2%,52,·,·,
CN1CCCN(S(=O)(=O)c2ccc(O)c(C(=O)O)c2)CC1,-1.8,·,-12,·,·,
CCOC(=O)C1=C(C)NC(C)=C(C(=O)OCC)C1c1ccccn1,-3.7,1%,-5,5,4,
COc1ccc(/C=N/N=C(/N)N[N+](=O)[O-])c(OC)c1,0.4,-7%,-2,3,-42,
N/C(=N\OC(=O)COc1ccc(Cl)cc1Br)c1ccncc1,·,-9%,·,-32,·,
Cc1ccc(-c2cc(C(=O)NCCc3ccc(S(N)(=O)=O)cc3)c3ccccc3n2)cc1,1.7,25%,25,-17,·,
CCOc1ccccc1OCC(=O)NCCc1ccc(S(N)(=O)=O)cc1,1.2,0%,-6,15,·,
CN(C)c1ccc(/C=C/C(=O)c2cccc(Br)c2)cc1,0.9,2%,?,-3,-42,
COc1cc(C)ccc1OCc1cc(C(=O)N2CCN(C3CCCCC3)CC2)no1,0.7,·,3,·,·,
CC1(C)C(=O)OC(C(=O)c2ccccc2)C2(CCCCC2)C1=O (stereo not given),-3.2,-10%,-3,6,-37,
O=C(CCn1c2c(c3ccccc31)CCCC2)NNC(=O)c1ccc([N+](=O)[O-])cc1,4.8,31%,73,14,-27,
COc1ccccc1CN1C[C@@H]2C[C@@H](c3ccc4nsnc4c3)N3CCC[C@@]23C1=O,4.1,10%,-5,3,·,
COc1ccc(CN(Cc2ccccn2)S(=O)(=O)c2ccc(-n3cnnn3)cc2)cc1,0.1,·,1,2,-25,

# Following part.
SMILES,RecA splice inh,Mtb growth,Mtb betalactam,Arbovirus anti,YopH PTP inh,others
CC1CCN(C(=S)c2cn(Cc3ccccc3F)c3ccccc23)CC1,7.5,-8%,3,-5,-34,
CCc1ccc(CN2CCC(CO)(CC3CCCCO3)CC2)o1 (stereo not given),·,-2%,-2,0,·,
CN(C)/C=C/C(=O)c1ccc(Cl)cc1,10,-1%,10,0,-27,
Cc1ccc(S(=O)(=O)c2cc3ccccc3oc2=Nc2ccc3c(c2)OCO3)cc1,0.2,-4%,12,-5,-20,
CN1CCN(C(=O)C2=C[C@@H](c3csc4ccccc34)C[C@@H](OCCCCO)O2)CC1,3.9,-17%,6,1,·,
COc1cc(/C=C(\NC(=O)c2cc(OC)c(OC)c(OC)c2)C(=O)NC(C(=O)O)c2ccccc2)cc(OC)c1OC (stereo not given),-1.8,·,-3,·,·,
O=C(Nc1cccnc1)c1c(F)c(F)c(F)c(F)c1F,-0.5,-8%,-2,11,12,
CC(=O)c1ccc(Oc2cc(C)nc(N3CCOCC3)n2)cc1,6.6,11%,-4,7,-4,
O=C(Nc1cc(F)ccc1F)C1CCCN1S(=O)(=O)c1cccc2nsnc12 (stereo not given),-1.9,·,-8,·,·,
COc1cc(C2C(C#N)=C(N)Oc3cc(N(C)C)ccc32)cc2c1OCO2 (stereo not given),·,-2%,5,-19,-11,
O=C1/C(=C/c2ccc(Cl)cc2)SC(=S)N1CCC(=O)N1CCCCC1CCO (stereo not given),2.6,·,3,·,·,
O=C(Cn1cnc2ccccc2c1=O)NCCC(=O)Nc1ccc(F)cc1,-1.7,·,2,·,·,
CCC(C)(C)NC(=O)C(c1ccc(OC)cc1)N(C(=O)CCC(=O)Nc1cc(C)on1)c1ccc(OC)cc1OC (stereo not given),3.5,·,2,·,·,
Cc1ccc(S(=O)(=O)N2CCC(C(=O)N3CCN(Cc4ccccc4)CC3)CC2)cc1,·,-10%,-5,9,-16,Arbovirus anti repeat=11
NNC(=O)C1c2ccccc2Oc2ccccc21,-0.8,·,-2,·,·,
Cc1cc(C)nc(Nc2cc([N+](=O)[O-])ccc2C)n1,-2.3,-5%,1,-6,·,
Cc1ccc(NC(=S)N2CCC(NC(=O)c3ccc(F)cc3)CC2)cc1C,-8.4,·,-7,·,·,
COC(=O)c1ccccc1S(=O)(=O)Nc1ccc(OC)nc1,0.8,·,0,4,3,
Cc1ccc(NC(=O)C(=O)NCCCN2CCCC2=O)cc1,10,·,4,·,·,
COc1ccccc1N1CCN(/N=C\C(Br)=C\c2ccccc2)CC1,7.1,2%,-5,-2,·,
COc1ccc(NC(=O)CC#N)cc1OC,·,6%,4,8,-3,
CCN(CC(=O)Nc1cccc(C(C)=O)c1)S(=O)(=O)c1ccc(C)cc1,-1.3,1%,-5,0,·,
Cc1cc(C)cc(NC2=NC3(CCCCC3)N=C(N)N2)c1,-1.1,1%,-11,-13,-17,
Cc1ccc2c(c1)COc1c3ccc(C(=O)N4CCCCC4)cc3nn1-2,2.6,-14%,41,·,·,
Cc1nnc2c(N3CCN(C(=O)c4ccco4)CC3)nc3ccccc3n12,-4.2,·,-3,·,·,

# Retrieved by compound from the list above:
SMILES,RecA splice inh,Mtb growth,Mtb betalactam,Arbovirus anti,YopH PTP inh,others
COc1cc(/C=C(\NC(=O)c2cc(OC)c(OC)c(OC)c2)C(=O)NC(C(=O)O)c2ccccc2)cc(OC)c1OC (stereo not given),-1.8,·,-3,·,·,
CC(=O)c1ccc(Oc2cc(C)nc(N3CCOCC3)n2)cc1,6.6,11%,-4,7,-4,
Cc1nnc2c(N3CCN(C(=O)c4ccco4)CC3)nc3ccccc3n12,-4.2,·,-3,·,·,
CN1CCN(C(=O)C2=C[C@@H](c3csc4ccccc34)C[C@@H](OCCCCO)O2)CC1,3.9,-17%,6,1,·,
O=C(Nc1cccnc1)c1c(F)c(F)c(F)c(F)c1F,-0.5,-8%,-2,11,12,
Cc1ccc2c(c1)COc1c3ccc(C(=O)N4CCCCC4)cc3nn1-2,2.6,-14%,41,·,·,
COc1ccccc1N1CCN(/N=C\C(Br)=C\c2ccccc2)CC1,7.1,2%,-5,-2,·,

# New compounds follow
SMILES,RecA splice inh,Mtb growth,Mtb betalactam,Arbovirus anti,YopH PTP inh,others
Cc1nn(C(C)C(=O)O)c(=O)c2ccccc12 (stereo not given),1.7,2%,-7,3,·,
O=C(CN1CCCC1)OCCCC1CCCCC1,3.3,-7%,-1,·,·,
O=C(NCCc1c[nH]c2ccccc12)C(=O)NCC1OCCCN1S(=O)(=O)c1ccc(F)cc1 (stereo not given),1.8,3%,2,-11,-17,
COc1ccc(S(=O)(=O)Nc2ccccc2C(=O)NCc2cccnc2)cc1OC,-0.4,·,0,·,·,
O=c1[nH]c(CSc2nnc(COc3ccccc3)n2-c2ccccc2)nc2ccccc12,-3.5,1%,3,-4,-8,
COc1ccc(C(=O)NCCc2nnc3ccc(SCC(=O)N4CCCC4)nn23)cc1,-2.6,·,-4,·,·,
CC(C(=O)Nc1ccc2c(c1)OCCO2)N1Cc2ccccc2C1=O (stereo not given),1.3,·,?,·,·,
COc1cc(NC(=O)c2noc3c2CCC3)c(OC)cc1Cl,6.1,-5%,-2,3,-44,
O=C(NCCCn1ccnc1)c1ccc(NS(=O)(=O)c2cccc([N+](=O)[O-])c2)cc1,-2.0,·,-7,·,·,
COc1ccc(F)cc1S(=O)(=O)N1CCCC(C)C1 (stereo not given),4.6,-14%,2,10,-2,
Cc1nc2cc(-c3cccc(F)c3)nn2c(C)c1CCC(=O)NC(C)CCc1ccco1 (stereo not given),0.0,17%,5,5,3,Arbovirus anti repeat=-7
CN1C(=O)C(C)(C)c2cc(S(=O)(=O)N3CCN(c4cccc(Cl)c4)CC3)ccc21,11,·,-2,·,·,
O=C(Nc1ccon1)c1ccc(Cl)s1,-3.7,10%,-5,3,-9,
COCCNc1ncnc2c1[nH]c1ccccc12,·,0%,-6,·,·,
Cc1ccccc1CNC(=O)CCC(=O)N1Cc2ccccc2Oc2ncccc21,1.8,·,-4,·,·,
COc1ccc2[nH]c(N=Nc3ccccc3C)c(O)c2c1,-2.1,-3%,83,7,-15,
CCCc1cc(C(=O)OC)c(NC(=O)OCC)s1,0.5,1%,-5,-5,-13,
O=C(Oc1cccc(C(=S)N2CCOCC2)c1)c1ccc([N+](=O)[O-])cc1,18,·,0,·,·,
Cc1c(C(=O)NCC2COc3ccccc3O2)oc2ccc(S(=O)(=O)N3CCOCC3)cc12 (stereo not given),2.6,·,-3,24,19,Arbovirus anti repeat=0
Cc1cccc(-n2c(SCc3cc(=O)n4ccsc4n3)nc3ccccc32)c1,·,·,2,-1,-29,
Cc1ccsc1C(=O)OCC(=O)NCCCc1ccccc1,0.4,-1%,3,-3,·,

# Only part of the results is shown; rates above refer to the full screens.
